Yeast UUG start = modulators of start codon recognition fidelity in yeast. activity score, % at 18.7 µM. hit rate 0.13% among 350,000. AID 602363. S. cerevisiae UUG-firefly luciferase reporter, luminescence/redox ratio;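 active = replicate mean at a twofold rise or more, about +100% in these data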;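 also: firefly luciferase made from a UUG start codon reports start codon fidelity; reporter light over untreated wells divided by growth signal over untreated wells; some hits fall short of that in this replicate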
CSC inhib = blocks cancer stem cells. cancer stem cell-like cells viability, luminescence. inhibition, % at 7.5 µM. hit rate 1.1% among 300,000. AID 2717;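 active = mean at 75% or more and at least half the replicates too; tested in HMLE shEcad cells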;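 also: 0% = median of negative and 100% = median of positive control wells; the first replicate is given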
MT1-MMP act inh = inhibitors of human MT1-MMP activation; P50281; HT1080 RFP-PRO-GFP cells, GFP/RFP ratio fluorescence, overnight; percent of plate control window, DMSO zero; GFP/RFP ratio change, % at 20 µM; hit rate 0.061% among 360,000;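 active = GFP/RFP ratio change of at least 30% with cell ATP level not reduced by more than half and red fluorescence within 50% of control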; also: strong numbers were not always called active
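Material: RFP-PRO-GFP reporter HT1080 cells. Dosing: single-point 20 µM compound, 1% DMSO. Controls: DMSO and RFP-L50D-GFP cell wells. Timing: cells overnight before dosing, compound overnight, 37 °C, 5% CO2. Measure: GFP/RFP fluorescence ratio.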
Rce1 inhib = yeast Ras-converting enzyme inhibition; Q03530; yeast membranes, quenched prenylated peptide cleavage fluorescence; calls only; hit rate 0.27% among 290,000; AID 2563;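 active = fall in fluorescence gain of 50% or more versus controls, with final raw signal at or below 3038400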;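 also: plate controls were neutral control wells for no effect and wells lacking membranes for full effect; tested at 10 µM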
Target sequence (Q03530 whole entry, looked up): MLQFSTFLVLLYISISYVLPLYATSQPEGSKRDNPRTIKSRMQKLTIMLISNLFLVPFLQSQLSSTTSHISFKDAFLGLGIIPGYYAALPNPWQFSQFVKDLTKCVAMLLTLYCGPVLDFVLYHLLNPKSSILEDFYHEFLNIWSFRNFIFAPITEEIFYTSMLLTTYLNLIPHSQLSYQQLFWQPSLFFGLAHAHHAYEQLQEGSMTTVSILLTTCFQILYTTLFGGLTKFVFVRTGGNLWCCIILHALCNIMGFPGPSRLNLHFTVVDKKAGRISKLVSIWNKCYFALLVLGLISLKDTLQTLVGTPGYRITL
eIF4H inh = inhibitors of RNA binding by human eIF4H. Q15056. eIF4H fluorescence polarization binding assay. inhibition, % at 35 µM. hit rate 0.94% among 290,000. AID 2012;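 active = 50% or more with normal probe brightness, or confirmed in later tests; about a fifth of its hits are not listed in these tables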;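 also: calls also rest on retests at 20 µM and on dose response follow-up; 0% = protein and probe with vehicle and 100% = probe without protein; strong numbers were not always called active; many hits fall short of the cut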
PABP FP inh = blocks human PABP binding to poly(A) RNA; AID 2014; P11940; fluorescence polarization; inhibition, % at 35 µM; hit rate 1% among 290,000;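 active = 50% or more with normal probe brightness, or confirmed in later tests; about a fifth of its hits are not listed in these tables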;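 also: calls also rest on retests at 20 µM and on dose response follow-up; controls were probe without protein and protein plus probe with vehicle; some compounds called inactive have numbers as strong as hits; many hits fall short of the cut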
Target sequence (P11940 whole entry, looked up): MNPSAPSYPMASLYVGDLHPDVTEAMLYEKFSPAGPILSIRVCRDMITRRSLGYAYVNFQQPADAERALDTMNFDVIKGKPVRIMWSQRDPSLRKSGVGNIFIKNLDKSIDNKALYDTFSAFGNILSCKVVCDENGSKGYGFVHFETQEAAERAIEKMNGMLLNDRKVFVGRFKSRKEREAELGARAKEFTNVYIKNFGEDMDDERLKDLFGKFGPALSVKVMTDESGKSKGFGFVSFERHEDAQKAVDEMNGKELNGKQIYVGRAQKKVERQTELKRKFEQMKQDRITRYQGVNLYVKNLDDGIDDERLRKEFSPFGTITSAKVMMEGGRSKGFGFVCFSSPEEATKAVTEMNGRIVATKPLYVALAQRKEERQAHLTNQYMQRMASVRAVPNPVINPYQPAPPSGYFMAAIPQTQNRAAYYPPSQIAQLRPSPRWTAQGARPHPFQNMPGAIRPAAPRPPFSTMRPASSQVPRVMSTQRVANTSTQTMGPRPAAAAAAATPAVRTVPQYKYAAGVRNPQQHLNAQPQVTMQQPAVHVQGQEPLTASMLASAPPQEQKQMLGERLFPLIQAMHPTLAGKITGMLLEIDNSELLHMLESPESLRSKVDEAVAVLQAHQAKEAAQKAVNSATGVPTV
Env fusion inh = inhibitors of HIV Env-mediated cell fusion. HeLa-JRFL Env/CEM21 cell fusion, luciferase. inhibition, % at 12.3 µM. hit rate 1.1% among 360,000. AID 651610;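 active = mean replicate inhibition score of at least 50 and every replicate individually at or above 50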;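 also: 0% = plate neutral controls and 100% = maraviroc near 300 nM; one replicate is shown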
eIF4H inh retest = second read-out of eIF4H inh, no call of its own (marks repeat the call); inhibition, %; compound at 20 µM; confirmation average;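 mean of two retest wells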
PABP FP inh retest = recorded beside PABP FP inh, whose call it bears; inhibition, %; compound at 20 µM; confirmation repeats;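 mean of two retest wells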
MT1-MMP act inh RFP = further read-out of MT1-MMP act inh, marked with its call; RFP signal change, %; measured here: RFP expression control read;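 0 = vehicle wells; hits needed this value within 50% of zero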
Starred values were filed as active, the others as inactive. These rows are one share of the data, so the mix of outcomes need not match the whole.

Results for CCOC(=O)CN1C(=O)N(CC(=O)OCC)C(c2ccccc2)(c2ccccc2)C1=O ?
Yeast UUG start: 1.7; CSC inhib: -14.5; MT1-MMP act inh: 3.5; eIF4H inh: -2.5; PABP FP inh: 0.8; Env fusion inh: 3.6; MT1-MMP act inh RFP: 5.1

How did COc1ccccc1NC(=S)NCc1ccc2c(c1)OCO2 do in these assays?
Yeast UUG start: -24.5; CSC inhib: 14.8; MT1-MMP act inh: -4.3; Rce1 inhib: inactive; eIF4H inh: 4.8; PABP FP inh: -2.7; Env fusion inh: 2.5; MT1-MMP act inh RFP: -2.9

Results for Cc1csc(NC(=O)Cc2ccc(Cl)cc2)n1 ?
Yeast UUG start: -28.2; MT1-MMP act inh: 2.4; Rce1 inhib: inactive; Env fusion inh: 2.6; MT1-MMP act inh RFP: 5.2

How did O=C(NC1CCCCCC1)c1ccc2c(=O)n3c(nc2c1)CCCCC3 do in these assays?
Yeast UUG start: -42.7; CSC inhib: 30.9; MT1-MMP act inh: 1.3; Rce1 inhib: inactive; eIF4H inh: 59.1; PABP FP inh: -4.1; eIF4H inh retest: -5.5; PABP FP inh retest: 6.9; MT1-MMP act inh RFP: -1.5

How did COCc1cc(C)n(CC(=O)Nc2ccc(Cl)cc2Cl)c(=O)c1C#N do in these assays?
Yeast UUG start: -3.3; CSC inhib: -20.1; MT1-MMP act inh: 4.8; Rce1 inhib: inactive; eIF4H inh: 4.7; PABP FP inh: 4.6; Env fusion inh: -16.5; MT1-MMP act inh RFP: 3.0

Results for CC1(C)CC(=O)C(C=NCCN2CCN(C(=O)NC34CC5CC(CC(C5)C3)C4)CC2)=C(O)C1 ?
Yeast UUG start: -1.3; MT1-MMP act inh: 4.0; Rce1 inhib: inactive; eIF4H inh: -3.4; PABP FP inh: 3.9; MT1-MMP act inh RFP: 6.4

Results for O=C(/C=C/c1ccccc1)N1CCN(CCN2C(=O)c3cccc4cccc(c34)C2=O)CC1 ?
CSC inhib: 4.4; MT1-MMP act inh: -4.6; Rce1 inhib: inactive; eIF4H inh: -0.7; PABP FP inh: -0.6; Env fusion inh: 7.3; MT1-MMP act inh RFP: -10.3

What do the screens show for `Cc1cccn2c(=O)c(C=Nc3ccc(Cl)cc3)c(NCCO)nc12`?
Yeast UUG start: 6.1; CSC inhib: 0.5; MT1-MMP act inh: -3.3; Rce1 inhib: inactive; eIF4H inh: 23.1; PABP FP inh: 3.1; Env fusion inh: -11.4; MT1-MMP act inh RFP: -4.2

Results for CCCNC(=S)N1CC2(C)CN(C(=O)C(=O)OC)CC(C)(C1)C2=O ?
CSC inhib: -1.7; MT1-MMP act inh: -3.1; Rce1 inhib: inactive; eIF4H inh: -3.6; PABP FP inh: 2.6; Env fusion inh: 4.1; MT1-MMP act inh RFP: 2.1

How did O=C(COC(=O)c1ccc(Cl)nc1)Nc1ccccc1OC(F)F do in these assays?
CSC inhib: -6.1; MT1-MMP act inh: 2.1; Rce1 inhib: inactive; eIF4H inh: -1.4; PABP FP inh: -7.7; Env fusion inh: 5.1; MT1-MMP act inh RFP: 6.5

How did Cc1cc(C)cc(NC(=O)CN2CCN(c3ncccn3)CC2)c1 do in these assays?
Yeast UUG start: 19.8; MT1-MMP act inh: -6.6; Rce1 inhib: inactive; eIF4H inh: 6.6; PABP FP inh: 5.2; MT1-MMP act inh RFP: -0.4

What do the screens show for `COC(=O)c1ccc(C)c(NC(=O)c2ccc(Cl)c([N+](=O)[O-])c2)c1`?
Yeast UUG start: -15.5; MT1-MMP act inh: 6.0; Rce1 inhib: inactive; eIF4H inh: -2.4; PABP FP inh: 0.5; MT1-MMP act inh RFP: 2.9

Results for O=C(O)c1ccccc1NS(=O)(=O)c1ccc(NN=Cc2ccccc2F)c([N+](=O)[O-])c1 ?
Yeast UUG start: -6.5; CSC inhib: -32.5; MT1-MMP act inh: 7.6; MT1-MMP act inh RFP: -0.3

Results for COc1ccccc1C1CCN(C(=O)C2CCCCC2)CC1 ?
Yeast UUG start: 7.2; CSC inhib: 4.2; MT1-MMP act inh: 3.8; Rce1 inhib: inactive; eIF4H inh: -5.9; PABP FP inh: 10.0; Env fusion inh: 36.0; MT1-MMP act inh RFP: -2.0

What do the screens show for `COCCCNC(=O)CCn1c(=O)c2ccccc2n(CC(=O)Nc2ccccc2C)c1=O`?
Yeast UUG start: -7.4; MT1-MMP act inh: -0.1; Rce1 inhib: inactive; eIF4H inh: 4.4; PABP FP inh: -6.0; MT1-MMP act inh RFP: 2.4

How did COc1cccc(CNC(=O)C2CCCN(c3nn4c(=O)cc(C)nc4s3)C2)c1OC (stereo unspecified) do in these assays?
Yeast UUG start: -6.5; CSC inhib: -1.0; MT1-MMP act inh: 2.4; Rce1 inhib: inactive; eIF4H inh: -8.4; PABP FP inh: -4.1; Env fusion inh: -97.4; MT1-MMP act inh RFP: -0.2

How did CCCCCCC(=O)N(O)C1CC(=O)N(c2ccc(Br)cc2)C1=O (stereo unspecified) do in these assays?
Yeast UUG start: 15.1; CSC inhib: 2.2; MT1-MMP act inh: 2.2; Rce1 inhib: inactive; eIF4H inh: -3.1; PABP FP inh: -4.6; Env fusion inh: 21.9; MT1-MMP act inh RFP: 6.2

What do the screens show for `C#CCn1c(S(=O)(=O)Cc2ccc(OC)cc2)nc(-c2ccccc2)c1-c1ccccc1`?
Yeast UUG start: 11.7; CSC inhib: 18.8; MT1-MMP act inh: -10.6; Rce1 inhib: inactive; eIF4H inh: -14.3; PABP FP inh: -9.9; Env fusion inh: 82.3*; MT1-MMP act inh RFP: -13.4

Results for C=CCc1ccccc1OCCNCc1ccccc1 ?
CSC inhib: -1.9; MT1-MMP act inh: -2.2; Rce1 inhib: inactive; eIF4H inh: 8.7; PABP FP inh: 1.6; Env fusion inh: -3.6; MT1-MMP act inh RFP: -3.4

What do the screens show for `Cc1ccc(NC2CC(=O)N(Cc3ccccc3)C2=O)cc1` (stereo unspecified)?
Yeast UUG start: -11.4; CSC inhib: -1.9; MT1-MMP act inh: -2.0; Rce1 inhib: inactive; eIF4H inh: -1.6; PABP FP inh: -9.6; Env fusion inh: -12.7; MT1-MMP act inh RFP: 1.3

How did Cc1nc2c(-c3ccccc3)c(C)[nH]n2c(=O)c1Cc1ccccc1 do in these assays?
CSC inhib: 18.2; MT1-MMP act inh: -3.2; Rce1 inhib: inactive; eIF4H inh: 7.7; PABP FP inh: 0.8; Env fusion inh: 15.0; MT1-MMP act inh RFP: -12.4

What do the screens show for `CC1(Cc2ccccc2OC(F)(F)F)C(=O)Nc2ccc(OC(F)(F)F)cc21` (stereo unspecified)?
Yeast UUG start: -4.5; MT1-MMP act inh: 0.0; Env fusion inh: 19.1; MT1-MMP act inh RFP: -4.3

Results for COc1ccc(N(CC(=O)NC2CCCCC2)C(=O)CNC(=O)c2cccs2)cc1 ?
Yeast UUG start: 4.7; CSC inhib: -12.0; MT1-MMP act inh: -0.3; Rce1 inhib: inactive; eIF4H inh: -3.6; PABP FP inh: 0.1; Env fusion inh: -1.6; MT1-MMP act inh RFP: 5.3

What do the screens show for `COc1ccc(CCn2c(=N)c(C(=O)NC3CCCC3)cc3c(=O)n4ccccc4nc32)cc1`?
Yeast UUG start: -8.4; CSC inhib: -3.3; MT1-MMP act inh: 0.5; Rce1 inhib: inactive; eIF4H inh: -9.3; PABP FP inh: -2.3; Env fusion inh: -2.0; MT1-MMP act inh RFP: -1.7

What do the screens show for `Cc1[nH]c2ccccc2c1Cc1nnc(SCC(=O)NCc2ccco2)o1`?
Yeast UUG start: 23.8; CSC inhib: 12.8; MT1-MMP act inh: 10.2; Rce1 inhib: inactive; eIF4H inh: 7.8; PABP FP inh: 11.0; Env fusion inh: 7.8; MT1-MMP act inh RFP: 7.7

What do the screens show for `CN(C)S(=O)(=O)c1cccc(-c2nnc(SCC(=O)NCCCCCC(=O)O)n2-c2ccc(F)cc2)c1`?
CSC inhib: -10.8; MT1-MMP act inh: -0.6; Rce1 inhib: inactive; eIF4H inh: 7.9; PABP FP inh: -11.4; Env fusion inh: 6.0; MT1-MMP act inh RFP: -0.4

What do the screens show for `COc1ccc(NC(=O)C2Cc3cc(S(=O)(=O)N4CCCCC4)ccc3N2C(C)=O)cc1Cl` (stereo unspecified)?
Yeast UUG start: -12.2; CSC inhib: -5.1; MT1-MMP act inh: 4.8; Rce1 inhib: inactive; eIF4H inh: 3.0; PABP FP inh: 12.3; Env fusion inh: 0.1; MT1-MMP act inh RFP: -3.5

How did CCOC(=O)c1c(C)[nH]c(C(=O)C(C)OC(=O)c2oc3ccccc3c2COC)c1C (stereo unspecified) do in these assays?
Yeast UUG start: 18.9; CSC inhib: -4.9; MT1-MMP act inh: 4.0; Rce1 inhib: inactive; eIF4H inh: -1.8; PABP FP inh: 4.1; MT1-MMP act inh RFP: 4.4

Results for CC(O)(c1cccc(F)c1)c1nc(-c2cccc(C(=O)O)c2)cs1 (stereo unspecified) ?
Yeast UUG start: -9.1; MT1-MMP act inh: -5.6; Env fusion inh: -22.3; MT1-MMP act inh RFP: 1.2

What do the screens show for `CC(=O)c1ccc(OC(C)C(=O)NC2CCCCC2C)cc1` (stereo unspecified)?
Yeast UUG start: -4.5; MT1-MMP act inh: 1.0; Env fusion inh: -4.9; MT1-MMP act inh RFP: 0.2

What do the screens show for `CN(Cc1nccn1C)C(=O)C1CCC(=O)N(Cc2cccc(C(F)(F)F)c2)C1` (stereo unspecified)?
Yeast UUG start: -7.6; CSC inhib: -2.4; MT1-MMP act inh: 0.9; Rce1 inhib: inactive; eIF4H inh: -14.4; PABP FP inh: -1.5; Env fusion inh: -5.9; MT1-MMP act inh RFP: 2.9

Results for COc1ccccc1-c1sc2cc3c(cc2c1C#CC1(O)CCCCC1)OCO3 ?
Yeast UUG start: 10.0; CSC inhib: 68.4; MT1-MMP act inh: 2.0; Env fusion inh: 9.5; MT1-MMP act inh RFP: 1.9

Results for CCOC(=O)c1cc2c(ccn2C)n1Cc1ccc(C#N)cc1 ?
CSC inhib: -4.6; MT1-MMP act inh: -4.0; Rce1 inhib: inactive; eIF4H inh: 5.5; PABP FP inh: 4.7; Env fusion inh: 29.5; MT1-MMP act inh RFP: -2.6

How did CCOc1ncccc1C(=O)N1CCN(c2cc(Cl)ccc2C)CC1 do in these assays?
CSC inhib: 56.8; MT1-MMP act inh: 2.4; Rce1 inhib: inactive; eIF4H inh: -7.4; PABP FP inh: 2.7; Env fusion inh: 17.5; MT1-MMP act inh RFP: -12.6

What do the screens show for `COc1ccc(-n2c(-c3ccc(Br)cc3)c[n+]3c2CCCCC3)cc1`?
Yeast UUG start: -14.5; CSC inhib: 18.0; MT1-MMP act inh: -7.0; Rce1 inhib: inactive; eIF4H inh: 4.5; PABP FP inh: 44.4; Env fusion inh: 38.6; MT1-MMP act inh RFP: -24.7

What do the screens show for `O=C(O)c1cc(N/N=C/c2ccc3c(c2)OCO3)ccc1Cl`?
CSC inhib: 3.1; MT1-MMP act inh: -7.4; eIF4H inh: 2.3; PABP FP inh: 2.6; Env fusion inh: -21.8; MT1-MMP act inh RFP: -1.6

Results for CCOc1ccc2nc(NC(=O)CS(=O)(=O)c3ccccc3)sc2c1 ?
Yeast UUG start: -16.2; CSC inhib: 3.5; MT1-MMP act inh: 1.0; Rce1 inhib: inactive; eIF4H inh: 15.0; PABP FP inh: 10.3; MT1-MMP act inh RFP: -0.4

Results for CCCNC(=O)[C@H]1N2C(=O)c3c(ccc(OC)c3OC)C2SC1(C)C (stereo partly specified) ?
Yeast UUG start: -5.0; CSC inhib: -3.3; MT1-MMP act inh: -1.9; Rce1 inhib: inactive; eIF4H inh: -3.8; PABP FP inh: -2.5; Env fusion inh: -11.7; MT1-MMP act inh RFP: -0.9

High-throughput results deposited in PubChem BioAssay by several laboratories.
